Screens: PubChem BioAssay, several laboratories
Beta apoptosis: beta cell apoptosis inhibition; hit rate 0.8% among 300,000; protection from apoptosis, % (concentration not given with the values); INS-1E cytokine-induced death, ATP luminescence, 48 h; percent of positive-control rescue, neutral wells zero;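 active means all replicates at 75% or more, or half of them and the mean; inconclusive means half reach 75% but not the mean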;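 further: 0% = cytokine-treated negative control wells and 100% = positive control rescue; higher means more ATP so stronger rescue from cytokine killing; wells of about 40 µL received 100 nL stock; the first replicate is given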
UCH37 inh: inhibitors of human deubiquitinating enzyme UCH37. Q9Y5K5. inhibition, % (test concentration not listed). hit rate 0.33% among 330,000. purified proteasome/UCH37, Ub-AMC cleavage fluorescence. AID 588478;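 active means mean of two replicates above 20%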;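 further: 0% = compound-free wells with enzyme and 100% = wells lacking proteasome; stock transfer was 100 nL into about 20 µL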
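assay system = human UCH37 enzyme supplied as purified proteasome complex | amount = proteasome at 0.15 nM in the dispensed enzyme solution | schedule = 30 min compound-proteasome preincubation then 25 min substrate reaction, room temperature | measured by = fluorescence, ex 355 nm, em 460 nm | benchmarks = no-proteasome wells (full inhibition) and compound-free wells (no inhibition)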
Beta2AR agonist: agonists of human beta-2 adrenergic receptor inducing internalization | AID 504454 | P07550 | Am2.2-beta2AR cells, FAP receptor internalization, flow cytometry; reference of the scale not given here | hit rate 0.43% among 340,000 | response, % (concentration not given with the values);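 active means response above a set limit, near 3 SD of response in nonfluorescent compounds, cut at about 42% in these data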;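 further: stock transfer was 100 nL into about 11 µL; a reference agonist was the positive control; negative values mostly stem from fluorescent compounds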
T cruzi repl: blocks replication of Trypanosoma cruzi. T. cruzi beta-gal in NIH3T3, luminescence, 90 h. inhibition, % (no concentration beside the values). hit rate 1.4% among 300,000. AID 1885;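 active means mean inhibition across valid replicates above about 55%, limit read from the data; inconclusive means mean below that limit but half or more replicates reach it; inactive means mean below it, under half of replicates reach it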;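 further: signal also drops with host cell toxicity which is not excluded here; 0% = plate median of DMSO wells and 100% = zero luminescence signal; higher percent means less beta-gal luminescence so fewer parasites; stock transfer was 50 nL into about 50 µL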
A1 inh: inhibitors of the anti-apoptotic protein A1, read as caspase activation. MEF A1-2A-BIM cells, Caspase-Glo 3/7 luminescence, 3 h; percent of clofoctol response, vehicle zero. caspase activation, % (no concentration beside the values). hit rate 0.066% among 330,000. AID 2462;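 active means over half of replicate activation scores above 10%, or exactly half above 10 with the replicate mean above 10; inconclusive means replicate mean below 10 yet half the replicates above 10; inactive means over half of replicates below 10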;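 further: wells of about 30 µL received 50 nL stock; many hits fall short of the cut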
RanGTP-Imp inh: disruptors of Ran-importin-beta complex formation – biochemical, FRET, CFP-Ran, YFP-importin-beta, homogeneous, primary screen; cell-free CFP-Ran/YFP-importin-beta FRET ratio; inhibition, % (concentration not given with the values); hit rate 1.1% among 300,000;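 active means most replicates above 15%; inconclusive means exactly half above 15%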;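 further: 0% = DMSO wells and 100% = Ran loaded with GDP instead of GTP; wells of about 40 µL received 100 nL stock; the first replicate is given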
LANA-H2A inh: blocks KSHV LANA binding to histone H2A/H2B | inhibition, % (no concentration beside the values) | Q9QR71 | hit rate 0.6% among 320,000 | AID 2629 | cell-free LANA-H2A/H2B peptide, fluorescence polarization; in the data active means inhibition mostly above about 10%, no sharp cut-off; inactive means mostly below about 6.7%;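 further: stock transfer was 7.5 nL into about 10 µL; 0% = median of vehicle wells and 100% = median of positive control wells; one replicate is shown; the record names a cut of 25% in any replicate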
Target sequence (Q9QR71 whole entry, looked up): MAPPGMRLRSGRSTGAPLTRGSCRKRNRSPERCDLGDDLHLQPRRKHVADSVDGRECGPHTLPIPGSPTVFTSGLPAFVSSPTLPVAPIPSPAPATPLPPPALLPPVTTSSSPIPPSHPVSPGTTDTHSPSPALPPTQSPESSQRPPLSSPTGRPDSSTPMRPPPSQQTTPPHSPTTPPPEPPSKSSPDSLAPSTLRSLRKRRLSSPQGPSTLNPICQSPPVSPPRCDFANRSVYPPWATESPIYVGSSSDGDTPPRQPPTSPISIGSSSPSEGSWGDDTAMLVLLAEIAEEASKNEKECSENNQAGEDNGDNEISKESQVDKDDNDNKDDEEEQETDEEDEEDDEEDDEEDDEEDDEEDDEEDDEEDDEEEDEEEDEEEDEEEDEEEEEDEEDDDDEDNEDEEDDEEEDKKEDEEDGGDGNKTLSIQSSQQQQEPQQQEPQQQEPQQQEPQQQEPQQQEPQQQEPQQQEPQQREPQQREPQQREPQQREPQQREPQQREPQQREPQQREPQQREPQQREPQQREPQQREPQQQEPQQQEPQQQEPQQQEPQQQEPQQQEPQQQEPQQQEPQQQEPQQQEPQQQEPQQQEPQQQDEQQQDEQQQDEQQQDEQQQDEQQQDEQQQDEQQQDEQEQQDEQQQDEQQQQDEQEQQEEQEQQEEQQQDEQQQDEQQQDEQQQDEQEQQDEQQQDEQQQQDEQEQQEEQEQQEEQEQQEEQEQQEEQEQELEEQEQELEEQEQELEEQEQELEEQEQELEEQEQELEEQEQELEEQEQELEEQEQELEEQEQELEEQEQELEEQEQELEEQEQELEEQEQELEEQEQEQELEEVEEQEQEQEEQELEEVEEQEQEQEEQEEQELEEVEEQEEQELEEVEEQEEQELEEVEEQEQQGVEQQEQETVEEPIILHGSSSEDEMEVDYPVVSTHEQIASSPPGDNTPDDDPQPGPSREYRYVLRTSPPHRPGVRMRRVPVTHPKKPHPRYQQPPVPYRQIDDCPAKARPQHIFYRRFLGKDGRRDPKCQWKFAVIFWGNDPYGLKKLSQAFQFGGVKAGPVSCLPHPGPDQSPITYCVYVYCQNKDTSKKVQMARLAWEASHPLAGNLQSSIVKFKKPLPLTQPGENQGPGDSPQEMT
Calb FLC: C. albicans growth modulation with fluconazole. hit rate 0.57% among 300,000. growth inhibition, % (test concentration not listed). AID 1979. C. albicans CaCi-2 (fluconazole-resistant clinical isolate) + fluconazole, Alamar Blue growth, 48 h;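 active means most replicates above 75%; inconclusive means exactly half above 75%; inactive means most below 75%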;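 further: all wells also contain fluconazole at 8 µg/ml as a sub-toxic cotreatment; 0% = median of DMSO wells and 100% = median of geldanamycin control wells; wells of about 8 µL received 7.5 nL stock; the first replicate is given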
Starred values were filed as active, the others as inactive; ? = inconclusive; · = not tested or not shown.

SMILES	Beta apoptosis	UCH37 inh	Beta2AR agonist	T cruzi repl	A1 inh	RanGTP-Imp inh	LANA-H2A inh	Calb FLC
CC(=O)Nc1ccc(OCc2nnc(-c3ccc(Cl)cc3)o2)cc1	7.9	-0.1	-4.5	-11.7	0.1	1.8	3.2	-38.3
CCC(C)NC(=O)c1ccccc1NC(=O)C1COc2ccccc2O1 (stereo unspecified)	-8.6	1.0	10.9	11.8	0.8	1.1	-1.1	6.1
COc1cc(OC)cc(C(=O)NNC(=O)NC2CCCCC2)c1	0.3	0.2	-9.8	0.4	0.3	-3.6	0.6	·
CN1CCN(c2ccc(S(=O)(=O)N3CCOCC3)cc2NC(=O)CCc2ccccc2)CC1	-4.8	0.2	3.9	54.9*	-0.1	3.9	-0.9	13.6
Cc1ccc2nc(C)cc(C(=O)N3CCCC(N4CCN(c5ccccc5C)CC4)C3)c2c1 (stereo unspecified)	-6.5	-0.1	4.1	7.3	0.0	-0.3	-3.1	-4.6
COc1cccc(CNC(=O)C2(C)Oc3ccccc3NC2=O)c1 (stereo unspecified)	-1.6	4.7	-4.2	-1.6	0.7	?	-1.9	1.4
C/C(=N\Nc1cc(-c2ccccc2)nc(-c2ccc(Br)cc2)n1)c1cccc(N)c1	6.3	·	5.0	-7.5	-0.5	·	-3.7	5.0
O=C(NCC1CCN(c2ccc(S(=O)(=O)N3CCOCC3)cc2)CC1)c1ccc(Cl)cc1	21.0	-3.1	-5.2	10.1	0.9	0.9	0.2	·
COc1ccc(N2CCN(C(=O)c3ccc4c(=O)n5c(nc4c3)CCCCC5)CC2)cc1	9.3	2.9	0.8	-19.4	-0.1	-0.9	0.5	3.3
CC(=O)c1ccccc1NC(=O)c1ccc(N2CCCC2=O)cc1	1.2	1.8	-4.2	2.2	-1.5	0.0	5.1	·
CCc1nnc(NC(=O)C2CSC3(C)CCC(=O)N23)s1 (stereo unspecified)	-4.8	2.7	6.3	0.8	0.5	-3.9	-0.5	-2.9
O=C(NNC(=O)c1oc2ccccc2c1-n1cccc1)c1ccco1	-20.3	1.9	-7.6	0.4	0.0	5.2	-2.9	-18.5
Cc1ccccc1SCC(=O)NNC(=O)c1ccncc1	-1.2	3.4	-4.2	·	1.2	·	1.2	·
CO/N=C(/CS(=O)Cc1ccc(Cl)cc1)c1ccc(Cl)cc1 (stereo unspecified)	-1.3	·	-3.5	21.7	0.1	7.6	-5.4	10.9
O=C1COc2ccccc2CN1	-6.5	4.8	-4.0	-10.9	0.4	4.7	·	-4.0
O=c1c(-c2ccccc2)coc2c(CN3CCOCC3)c(O)ccc12	-1.8	-121.8	-22.2	-10.5	-0.1	?	0.4	9.5
COc1ccc(NS(=O)(=O)NC(=O)c2c[nH]c3ccccc23)cc1	-1.5	-1.5	2.0	-6.3	1.0	-0.6	1.4	0.4
Cc1cc(-c2nnc(SCC(=O)NC3CCCC3)o2)no1	-4.7	4.4	-5.1	1.2	0.4	?	1.9	-2.1
CN(C)CCCN1C(=O)C2CCc3[nH]c4ccccc4c3C2C1=O (stereo unspecified)	-1.0	0.0	-5.5	-1.2	0.3	?	-2.7	-8.8
CC(=O)c1ccccc1OC(=O)COc1ccc([N+](=O)[O-])cc1	-4.3	1.7	3.6	-3.2	-0.1	3.4	2.4	1.6
CC(=O)Nc1c(O)nc(SCC(=O)N2CCCCC2)[nH]c1=O	-1.2	0.6	-2.9	·	-1.2	·	3.4	·
CC1CCc2nc(NC(=O)CCSc3ccccc3)sc2C1 (stereo unspecified)	-22.8	1.4	-0.1	-11.3	-0.3	3.9	1.1	-0.3
Cc1nnc(NC(=O)C2CC(=O)N(C(C)c3ccccc3)C2)s1 (stereo unspecified)	-1.7	1.7	-0.4	2.2	0.9	-18.4	-3.8	2.8
Cc1cccc(C)c1NC1=C(Cl)C(=O)OC1OC(=O)c1ccccc1 (stereo unspecified)	-10.0	3.3	3.0	-10.1	0.8	4.9	8.1	-6.9
COc1ccc(S(=O)(=O)N(C)C[C@H]2Oc3ccc(NC(=O)Cc4cn(C)c5ccccc45)cc3C(=O)N([C@@H](C)CO)C[C@@H]2C)cc1	1.2	-4.9	-4.7	·	-0.1	·	-7.1	·
Cn1nnnc1Sc1ncnc2scc(-c3cccc(F)c3)c12	4.7	3.2	6.4	·	-0.9	·	4.0	·
COc1ccc(Br)cc1/C=C/C(=O)NC(=S)Nc1ccc(Cl)c(C(=O)O)c1	0.4	-0.1	3.3	-12.1	0.4	-4.0	-5.1	-22.4
Cc1cc2ncn(C(=O)N3CCOCC3)c2cc1C	-3.3	-0.2	-12.4	-27.3	-0.2	-0.8	-0.4	-2.7
COc1ccccc1CNC(=S)NCc1ccc(Cl)cc1	-2.7	2.6	6.3	-6.4	1.1	?	1.3	4.6
S=C(Nc1ccc(Cl)cc1)Nc1ccc2c(c1)OCCO2	-5.6	-1.4	0.0	·	-1.5	·	-5.0	80.8*
CC(=O)Nc1ccc(NC(=O)COc2ccc(S(=O)(=O)N3CCCC3)cc2C)cc1	-3.7	0.6	-6.1	9.7	1.0	5.5	0.8	-10.0
COc1cccc(N(CC(=O)NCCSCc2ccco2)S(=O)(=O)c2ccccc2)c1	4.5	3.9	12.5	52.0	0.9	3.1	-4.2	-6.9
O=C(NCc1cccnc1)c1ccccc1-c1nc(-c2ccccc2)no1	3.0	3.4	2.0	-20.0	-0.3	0.0	6.2	-16.7
O=C(c1ccc(N2C(=O)c3ccccc3C2=O)cc1)N1CCCCC1	2.1	1.1	4.1	-1.7	-0.3	2.4	-1.5	-14.5
COC(=O)CN1C(=O)[C@H]2[C@@H](c3ccc(C)o3)N3C(=O)CN(CC4CC4)C(=O)[C@@]3(Cc3ccccc3)[C@H]2C1=O	6.1	0.8	-5.3	-21.7	0.6	0.1	2.8	-12.8
CCCOC(=O)c1ccc(N2C(=O)c3ccccc3C2=O)cc1	-8.3	-0.4	8.8	-2.7	0.3	9.0	-2.0	11.5
CSc1ccc(/C=C(\NC(=O)c2ccco2)C(=O)N2CCCCC2)cc1	-0.7	8.5	-17.5	24.9	0.3	6.4	-11.4	9.8
Cc1ccc2nc(-c3ccc(N4C(=N)SC5CS(=O)(=O)CC54)cc3)sc2c1 (stereo unspecified)	9.7	-108.2	8.2	18.7	0.1	2.9	1.2	1.2
CNC(=O)C1CCC(=O)N1Cc1ccc(C)cc1 (stereo unspecified)	-3.5	3.6	7.6	-4.8	-0.6	?	-0.9	-10.6
COC(C(=O)Nc1ccc(C(C)=O)cc1)c1ccccc1 (stereo unspecified)	-4.4	3.8	5.1	-27.6	0.9	3.9	1.1	-3.0
CCOc1ccccc1NC(=O)N1C2CCCC1CC(NC(=O)C1CC1)C2 (stereo unspecified)	·	0.1	1.4	-9.3	0.1	1.9	-0.6	-3.6
COC(=O)CSc1nc2c(c(-c3ccc(O)cc3)c1C#N)CCCC2	·	3.4	16.9	12.9	0.0	5.9	-0.3	-7.2
COc1ccc(NC(=O)c2cc3c(Cl)nc4ccccc4c3s2)c(OC)c1	6.5	·	36.1	-14.7	?	2.4	-1.1	8.5
O=C(CCNS(=O)(=O)c1ccc2[nH]c(=O)oc2c1)NCc1ccccc1	-3.1	1.0	-5.0	-3.7	1.2	-0.2	0.2	-1.4
C=CCc1cccc(CNc2ccc(S(=O)(=O)Nc3nccnc3OC)cc2)c1O	1.5	2.9	-2.8	-10.4	0.7	5.5	-3.4	-19.7
O=C(NCc1ccc2[nH]c3c(c2c1)CCCC3)N1CCOCC1	-3.9	·	·	0.9	1.0	5.4	0.5	9.6
CN(C)c1ccc(Cl)cc1N	·	1.1	7.7	11.2	0.9	3.9	0.9	31.4
O=C(NCCCN1CCOCC1)c1cc(C(=O)C2CC2)c[nH]1	-1.1	-1.1	-2.3	-5.2	0.5	1.6	3.6	3.3
CC(=O)Nc1ccc(S(=O)(=O)N2CCSC2c2ccccc2Cl)cc1 (stereo unspecified)	3.4	3.5	-6.1	-0.1	-0.4	-1.6	-13.3	5.4
O=C(CCN1C(=O)[C@@H]2Cc3ccccc3CN2C1=O)NCCc1ccccc1	-4.5	1.9	-8.6	11.4	-0.1	-4.3	-1.4	-5.5
O=[N+]([O-])c1ccc(COc2ccc(-c3[nH]ncc3-c3ccc(Cl)cc3)c(O)c2)cc1	17.4	-0.1	12.0	38.0	0.2	-1.1	-0.3	-3.3
CCOC(=O)CN1C(=O)C(CC)Oc2ccc(Cl)cc21 (stereo unspecified)	-4.0	0.9	2.2	14.2	-0.7	3.8	4.1	-1.7
COc1cccc(/C=N/NC(=O)c2[nH]nc3c2CCc2ccccc2-3)c1O	82.2*	·	32.5	-12.0	1.2	?	-1.9	89.9*
O=C(c1ccccc1Cl)N1CCSCC1	1.4	4.1	-0.2	-4.8	-0.3	1.5	0.9	0.9
CCOC(=O)CC(NC(=O)Cn1nnc(-c2ccccc2)n1)c1ccc(OC)cc1 (stereo unspecified)	4.2	4.7	-6.0	11.4	0.4	-2.5	1.0	1.8
Nc1ncnc(Sc2ccc(Cl)cc2)c1[N+](=O)[O-]	-24.1	4.7	4.2	50.1	1.3	-0.3	-2.1	-7.5
N#C/C(=N\Nc1ccccc1)C(=N)N1CCCCCC1	-0.4	·	-4.3	6.7	-0.7	0.2	-0.5	3.9
CCN(CC)S(=O)(=O)c1cc(C(=O)Nc2ccncc2)ccc1Cl	-6.2	3.8	3.4	24.9	0.7	4.8	1.6	-1.5
Cc1ccc(C)c(N2C(=O)CC(Cc3ccc(Cl)cc3)C2=O)c1 (stereo unspecified)	-2.3	5.7	-3.9	-3.7	-0.4	-2.2	-1.1	27.5
Cc1c(Cl)cccc1NC(=S)NCCc1ccc(Cl)cc1	·	3.2	4.4	-1.1	0.5	2.2	-2.3	-7.3

3 entries from above, arranged by the value under RanGTP-Imp inh, largest number first:
structure	RanGTP-Imp inh
CN(C)c1ccc(Cl)cc1N	3.9
O=C(NCCCN1CCOCC1)c1cc(C(=O)C2CC2)c[nH]1	1.6
O=C(c1ccccc1Cl)N1CCSCC1	1.5

(continued)
SMILES	Beta apoptosis	UCH37 inh	Beta2AR agonist	T cruzi repl	A1 inh	RanGTP-Imp inh	LANA-H2A inh	Calb FLC
COc1ccc(C[C@@H]2CN3C(=NC[C@@H]3C)N2CCNC(=O)c2ccc(C)c(Br)c2)cc1	4.6	0.9	11.4	42.6	1.9	-1.7	-1.5	-18.1
CCCCCCOc1ccc(C(=O)O)cc1	-7.6	3.6	-3.2	-5.6	-6.1	-1.9	-5.2	16.0
C=CCN(CC=C)C(=S)NC(=O)/C=C/c1ccc(C)cc1	0.3	2.5	3.7	-14.7	-0.2	-1.2	1.7	-4.4
CCC(=O)OC1(C)C(=O)C2=COC(c3ccc(OC)cc3)=CC2=C(Br)C1=O (stereo unspecified)	-0.7	9.6	-0.9	-4.3	1.4	-29.3	7.1	11.2
